KCNQ2 block – KCNQ2 channel blockers in CHO-K1 cells – cell-based, FluxOR thallium flux, B-score, primary screen (AID 2156); O88943; 310,000 tested, 1.1% active; 20 min; active compounds read low; only compounds with negative scores are shown here; some inactives read as strong as hits; B-score at 10 µM;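 active = fluorescence ratio B-score at most minus 3 library SDs, with starting brightness B-score within 2 library SDs, cut at about -5.5 in these data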
Target sequence (O88943 whole entry, looked up): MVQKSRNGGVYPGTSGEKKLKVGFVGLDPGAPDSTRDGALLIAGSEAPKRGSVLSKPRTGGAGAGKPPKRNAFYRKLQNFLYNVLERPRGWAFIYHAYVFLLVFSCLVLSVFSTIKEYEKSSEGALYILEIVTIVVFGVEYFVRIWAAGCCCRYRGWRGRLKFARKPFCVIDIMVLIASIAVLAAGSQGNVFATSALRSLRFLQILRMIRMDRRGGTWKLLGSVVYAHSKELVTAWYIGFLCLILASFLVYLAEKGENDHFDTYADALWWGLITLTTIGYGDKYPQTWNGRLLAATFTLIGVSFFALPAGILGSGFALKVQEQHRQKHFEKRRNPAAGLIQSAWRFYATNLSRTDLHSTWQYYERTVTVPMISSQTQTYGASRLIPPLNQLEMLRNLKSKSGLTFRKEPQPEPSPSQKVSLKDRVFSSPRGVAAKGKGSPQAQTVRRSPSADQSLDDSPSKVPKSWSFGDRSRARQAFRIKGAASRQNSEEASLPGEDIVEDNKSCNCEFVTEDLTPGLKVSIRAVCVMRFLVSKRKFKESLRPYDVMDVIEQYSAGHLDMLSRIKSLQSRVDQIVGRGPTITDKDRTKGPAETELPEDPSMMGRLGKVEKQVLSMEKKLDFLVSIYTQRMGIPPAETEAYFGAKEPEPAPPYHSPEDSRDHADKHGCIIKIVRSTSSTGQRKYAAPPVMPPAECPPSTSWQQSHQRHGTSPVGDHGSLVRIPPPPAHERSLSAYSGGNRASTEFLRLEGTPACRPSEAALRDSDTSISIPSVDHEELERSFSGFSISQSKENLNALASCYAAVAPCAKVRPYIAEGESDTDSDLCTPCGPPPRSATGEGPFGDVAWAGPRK
KCNQ2 block baseline – second read-out of KCNQ2 block, no call of its own (marks repeat the call); B-score; measured here: initial fluorescence intensity artifact check;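 brightness before thallium and not channel activity; 0 = typical well and far values either way flag optical interference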
The depositor's hits bear a star; i = inactive. The list is partial; the hit share may differ from the screen's.

Start of the listing, in advance:
SMILES	KCNQ2 block	KCNQ2 block baseline
NC(=O)CC(NC(=O)Cc1cccc2ccccc12)c1ccc(NC2CC3CCC2C3)c([N+](=O)[O-])c1 (stereo not given)	i	-0.92
Cc1ccc(-c2cc(C(F)F)n3ncc(C(=O)N4CCc5ccccc54)c3n2)cc1	i	-0.51
CC(C)(COC(=O)Nc1ccccc1)COC(=O)Nc1ccccc1	i	0.43
O=CNCc1nc2ccccc2n1CCc1ccccc1	i	0.17
CC(=O)N1c2c(cc(Br)cc2S(=O)(=O)NCc2ccccc2)CC1C (stereo not given)	i	0.92
Cc1c(NC(=O)CN2C(=O)NC(C)(c3ccc4c(c3)OCCO4)C2=O)c(=O)n(-c2ccccc2)n1C (stereo not given)	i	-1.53
Cc1nn(-c2ccccc2)c(N)c1-c1ccccc1	i	0.13

Main list, from the start:
SMILES	KCNQ2 block	KCNQ2 block baseline
NC(=O)CC(NC(=O)Cc1cccc2ccccc12)c1ccc(NC2CC3CCC2C3)c([N+](=O)[O-])c1 (stereo not given)	i	-0.92
Cc1ccc(-c2cc(C(F)F)n3ncc(C(=O)N4CCc5ccccc54)c3n2)cc1	i	-0.51
CC(C)(COC(=O)Nc1ccccc1)COC(=O)Nc1ccccc1	i	0.43
O=CNCc1nc2ccccc2n1CCc1ccccc1	i	0.17
CC(=O)N1c2c(cc(Br)cc2S(=O)(=O)NCc2ccccc2)CC1C (stereo not given)	i	0.92
Cc1c(NC(=O)CN2C(=O)NC(C)(c3ccc4c(c3)OCCO4)C2=O)c(=O)n(-c2ccccc2)n1C (stereo not given)	i	-1.53
Cc1nn(-c2ccccc2)c(N)c1-c1ccccc1	i	0.13
COCCCNC(=O)/C=C/c1c(Cl)cccc1Cl	i	0.77
COc1ccccc1Cn1c(=O)c2ccccc2n2c(Sc3ncnc4sccc34)nnc12	i	-2.18
N/C(Cc1ccccc1)=N\OC(=O)c1cccc2ccccc12	i	0.6
CCOc1ccc(S(=O)(=O)N2CCC(C(=O)NCc3ccccn3)CC2)cc1C	i	-0.1
O=C(O)Cn1c(-c2ccccn2)nc2ccccc21	i	-0.47
CCN(CC)CCNC(=O)c1cc2c(s1)-c1ccccc1SC2	i	2.21
Cc1ccc(OC(F)F)c(NC(=O)Nc2cccc(C(F)(F)F)c2)c1	i	0.62
COc1ccc(C/C(N)=N/OC(=O)c2cccc([N+](=O)[O-])c2)cc1	i	2.65
CC(=O)c1ccc(OCc2cc(C(=O)NCC3CCCCO3)no2)cc1 (stereo not given)	i	-2.76
O=C(CS(=O)(=O)Cc1ccccc1)N1CCN(c2cccc(C(F)(F)F)c2)CC1	i	-0.08
CC(=O)OC(C(=O)NCCN1CCOCC1)c1c(F)cccc1F (stereo not given)	i	0.42
Cn1cc(CN2CCCC(C(=O)Nc3cccc(-c4cc5ccccc5[nH]4)c3)C2)cn1 (stereo not given)	i	0.55
COC(=O)c1sc2ccccc2c1NC(=O)c1ccc(S(=O)(=O)N2CC(C)CC(C)C2)cc1 (stereo not given)	i	1.44
OC(C#CCN1CCCC1)c1ccccc1 (stereo not given)	i	-0.06
CC(=O)c1ccc(N2CCN(C(=O)c3ccc(Br)cc3)CC2)c(F)c1	i	0.27
O=C1Cc2cc(S(=O)(=O)N3CCCCC3)ccc2N1	i	4.98
CCOC(=O)c1nnn(-c2nonc2-n2cccc2)c1CN1CCC(C(=O)OCC)CC1	i	1.59
CC(C)(CNC(=O)c1ccc(-c2cccc(C(F)(F)F)c2)o1)N1CCOCC1	i	1.23
Cc1ccc(/C=N/N2CCN(Cc3ccccc3)CC2)cc1	i	0.6
COc1ccccc1NC(=O)CSc1nccn1Cc1ccccc1	i	1.09
COc1ccc(OC)c(C(=O)NC(CC(N)=O)c2ccc(NC(C)C)c([N+](=O)[O-])c2)c1 (stereo not given)	-9.64*	0.48*
O=C(CN1CCCCC1)NC(=O)NCc1ccccc1	i	-0.03
O=C(CSc1ncn(-c2ccccc2)n1)NCc1ccccc1	i	-0.3

Full records as entered above. Values in the order: KCNQ2 block, KCNQ2 block baseline
CCOC(=O)c1nnn(-c2nonc2-n2cccc2)c1CN1CCC(C(=O)OCC)CC1 across the screens: i, 1.59
CC(C)(CNC(=O)c1ccc(-c2cccc(C(F)(F)F)c2)o1)N1CCOCC1 across the screens: i, 1.23

The results go on.
SMILES	KCNQ2 block	KCNQ2 block baseline
CN(C)c1ccc(C2C3CCCc4ccccc4C3=NN2C)cc1 (stereo not given)	i	-0.77
CCOC(=O)C(NC(=O)CC)C(O)c1cccc([N+](=O)[O-])c1 (stereo not given)	i	0.13
Cc1ccccc1N1CCN(S(=O)(=O)CC23CCC(CC2=O)C3(C)C)CC1 (stereo not given)	i	-1.12
CCCNc1ccc(S(=O)(=O)N(CC)CC)cn1	i	-0.31
COc1ccccc1NC(=O)COC(=O)CN1C(=O)C(=O)c2ccccc21	i	-0.95
O=C(NC1CCCC1)C(c1cccs1)N(C(=O)c1csnn1)c1ccccc1F (stereo not given)	i	0.5
CCc1nc(C)ccc1OCC(=O)N1CCc2c([nH]c3ccccc23)C1c1ccccn1 (stereo not given)	i	0.93
CC(=O)N1c2ccc(S(=O)(=O)N3CCC(C(=O)N4CCC(C)CC4)CC3)cc2CC1C (stereo not given)	i	-2.48
CCCC/C(O)=C1\C(=O)CC(C)(C)CC1=Nc1ccccc1OC	i	-1.3
CCOc1ccccc1-n1c(C)cc(C=O)c1C	i	-0.25
O=C(CNC(=O)c1ccc2ccccc2c1)NCc1ccc(F)cc1	i	-0.27
COC(=O)c1ccc(NC(=O)CN2C(=O)c3ccccc3S2(=O)=O)cc1	i	1.11
CCCN(CCC)c1nc(N)nc(-c2cc(Cl)ccc2OC)n1	i	1.04
COc1cc(C(=O)N2CCCN(C)CC2)cc(OC)c1C	i	1.07
CC1(c2nnc(-c3ccncc3)o2)CC(c2c(Cl)cccc2Cl)=NO1 (stereo not given)	i	0.83
COc1ccc(N(CC(=O)N/N=C/c2cccs2)S(=O)(=O)c2ccccc2)cc1	i	-1.94
COc1c(F)c(F)c(C(=O)Nc2ccccc2N2CCN(C(C)=O)CC2)c(F)c1F	i	-0.02
COc1ccc(Cl)cc1N1C(=O)C2CCCN2C1c1ccccc1F (stereo not given)	i	-1.26
O=C(Nc1nnc(SCc2ccc(F)cc2)s1)C1CC(=O)N(Cc2ccccc2)C1 (stereo not given)	i	3.06
Cc1nc2cc(NC(=O)c3ccc(N4C(=O)CCC4=O)cc3)ccc2s1	i	-0.91
CS(=O)(=O)N(CC(=O)NCCC1=CCCCC1)c1ccc2c(c1)OCO2	i	0.6
COCCN(C(=O)Cn1nnc2ccccc21)C(C(=O)NC1CCCCC1)c1ccc(OC)cc1OC (stereo not given)	i	0.41
Cc1oc2c(C)c(O)ccc2c(=O)c1-c1cnn(-c2ccccc2)c1	i	-0.98
OC1(c2cccs2)CN(c2ccc(Cl)cc2)C2=[N+]1CCCS2 (stereo not given)	i	-0.09
CCN1C(=O)NC2C1N(S(C)(=O)=O)CCN2S(C)(=O)=O (stereo not given)	i	0.63
CO/C(N)=C(\C#N)N=Cc1ccccc1Cl	i	-1.81
COc1ccc(S(=O)(=O)NCC(c2ccco2)N2CCc3ccccc3C2)cc1 (stereo not given)	i	-0.88
COc1ccc(NC(C)=O)cc1S(=O)(=O)N1CCN(C/C=C/c2ccccc2)CC1	i	0.39
CC(C)(C)c1cc[n+](-c2nc([O-])sc2C=O)cc1	i	1.1
COCCN(C(=S)Nc1ccc(C)cc1C)C(C)c1cccs1 (stereo not given)	i	1.47
CCOc1ccc(S(=O)(=O)NCc2ccc(F)cc2)c2cccnc12	i	-0.11
Cc1ccc(CNC(=O)C2CC=CCC2C(=O)O)cc1 (stereo not given)	i	-0.21
C/C(=N\NC(=O)Cc1c(C)[nH][nH]c1=O)c1cccc(Br)c1	i	1.74
COc1ccc(/C=N/Nc2nncn2N)cc1Br	i	-0.43
Cc1cc(C(=O)O)ccc1-n1c(C)ccc1C	i	0.28
COc1cc2c(C(=O)NCc3ccc4c(c3)OCO4)cn(C)c(=O)c2cc1OC	i	-0.05
Cn1ncc2c(=O)[nH]cnc21	i	0.39
CC(C(=O)N1CCN(c2ccccc2)CC1)N1C(=O)C2CC=CCC2C1=O (stereo not given)	i	1.19
Cc1nn(Cc2ccccc2Cl)c2sc(C(=O)NC(C)(C)C)cc12	i	0.06
CCOC(=O)C(=O)N1CCC(C(=O)OC)CC1	i	1.01
COCCCNC(=S)N(Cc1ccccc1)Cc1ccc(F)cc1	i	-0.26
CCC1CCCCN1C(=O)COc1ccc(N(C)S(=O)(=O)c2ccc(C)cc2)cc1 (stereo not given)	i	-0.23
Cc1ccc2oc(=O)c(/C=C(\O)c3ccco3)nc2c1	i	0.52
NC(=O)c1ccc(NC(=O)CSc2cn(CC(=O)N3CCOCC3)c3ccccc23)cc1	i	0.64
CC(=O)c1c(C(C)=O)c(C)n(Cc2ccc3c(c2)OCO3)c1C	i	0.04
Cc1ccc(N(Cc2ccccc2)C(=O)CN2C(=O)NC3(CCCC3)C2=O)cc1	i	0.85
COc1ccccc1NC(=O)N1CCN(c2ccc3nncn3n2)CC1	i	-1.69
O=C(NCCc1c[nH]c2ccccc12)c1cncc(Br)c1	i	2.19
CCO[C@@H]1OC(C(=O)O)=C[C@H](c2ccc(C(F)(F)F)cc2)[C@H]1CCCO	i	0.04
CCCN1C(=O)/C(=C/c2nc3ccccc3c(=O)[nH]2)c2ccccc21	i	0.11
CCOc1ccc(S(=O)(=O)NCc2ccc3c(c2)OCO3)cc1	i	0.28
COc1ccccc1-n1nnnc1SCc1cc2c(cc1Br)OCO2	i	0.42
CCCCc1c(O)nc(SCC(=O)c2ccccc2)n(-c2ccccc2OC)c1=O	i	0.96
COc1cccc(CN2CCNC(=O)C2CC(=O)NCc2cn3ccccc3n2)c1OC (stereo not given)	i	2.49
Cc1ccc(NC(=O)COc2ncnc3cc([N+](=O)[O-])ccc23)cc1S(=O)(=O)N1CCOCC1	i	0.05
COCCCNC(=O)CCn1c(=O)c2ccccc2n(Cc2cccc([N+](=O)[O-])c2)c1=O	i	-0.03
CC(=O)c1ccc(N2CCN(C(=O)c3cccc(Oc4ccccc4)c3)CC2)cc1	i	-0.08
O=C(NC1CCN(S(=O)(=O)c2ccc(Cl)cc2)CC1)c1cccnc1	i	0.52
CCN(CC(=O)Nc1c(C(=O)OC)[nH]c2ccc(C)cc12)c1ccc2c(c1)OCO2	i	1.7
CC1=CC(C)(C)N2C(=O)C3(SCC(=O)N3c3ccc(O)cc3)c3cc(C)cc1c32 (stereo not given)	i	-3.08

4 entries from above, ordered by molecular weight, falling:
SMILES	KCNQ2 block	KCNQ2 block baseline
CCCCc1c(O)nc(SCC(=O)c2ccccc2)n(-c2ccccc2OC)c1=O	i	0.96
COc1ccccc1-n1nnnc1SCc1cc2c(cc1Br)OCO2	i	0.42
CCO[C@@H]1OC(C(=O)O)=C[C@H](c2ccc(C(F)(F)F)cc2)[C@H]1CCCO	i	0.04
CCCN1C(=O)/C(=C/c2nc3ccccc3c(=O)[nH]2)c2ccccc21	i	0.11

Continued:
SMILES	KCNQ2 block	KCNQ2 block baseline
Cc1nn(CC(O)Cn2cnc3c2c(=O)n(C)c(=O)n3C)c(C)c1Br (stereo not given)	i	2.1
O=C(Cc1c[nH]c2ccccc12)NCc1ccco1	i	1.62
CCOC(=O)c1cc(-c2ccc(OC)cc2)nn1-c1ccccc1C(=O)O	i	0.31
Cn1c(=O)[nH]c(=O)c2c1nc(NCCCn1ccnc1)n2CCOc1ccccc1	i	1.25
COc1cccc(C(=O)Oc2c(CN3CCOCC3)cc(Cl)c3cccnc23)c1	i	1.03
C/C(=N\NC(=O)c1c[nH]c2ccccc12)c1ccccn1	i	-0.81
CCOC(=O)c1cc(-c2csc(-c3ccc(C(F)(F)F)cc3)n2)on1	i	-0.89
CCN1CCN(C(=S)c2ccc(OC)cc2)CC1	i	1.03
CS(=O)(=O)N1c2ccccc2[C@@]2(Br)C[C@H]3C(=O)N[C@@H](Cc4ccccc4)C(=O)N3[C@@H]12	i	-1.29
C[C@H]1CC[C@H]2C(=O)N3[C@H](c4cccc(N5CCCC5=O)c4)[C@@H](C)CC[C@H]3C(=O)N2[C@@H]1c1cccc(N2CCCC2=O)c1	i	0.21
COc1ccc(-c2cn3c4c(sc3n2)CCCC4)cc1	i	1.92
c1csc(-c2nn3c(Cn4cnc5ccccc54)nnc3s2)c1	i	2.91
Cc1cc(S(=O)(=O)Nc2ccc(C(=O)NCC(c3ccco3)N3CCCCC3)cc2)ccc1F (stereo not given)	i	1.24
S=c1[nH]nc(-c2cc(-c3ccccc3)n[nH]2)n1/N=C/c1c(Cl)cccc1Cl	i	-0.78
O=C(NNC(=O)c1cccc(Br)c1)Nc1ccc(Cl)cc1	i	-0.2

Of the compounds above, these contain a tert-butyl group.
SMILES	KCNQ2 block	KCNQ2 block baseline
CC(C)(C)c1cc[n+](-c2nc([O-])sc2C=O)cc1	i	1.1
Cc1nn(Cc2ccccc2Cl)c2sc(C(=O)NC(C)(C)C)cc12	i	0.06

Remaining list, next part:
SMILES	KCNQ2 block	KCNQ2 block baseline
O=C(NCCC(c1ccccc1)c1ccccc1)c1cnc2sccn2c1=O	i	2.82
Cc1ccc(N(CC(N)=O)C2SC(=O)N(Cc3cccc(C(=O)O)c3)C2=O)cc1 (stereo not given)	i	-0.05
Cc1cc(C)n2cc(CSc3ccccn3)nc2n1	i	-0.05
CC(=O)N1c2ccc(S(=O)(=O)NCC3CCC(C(=O)N(C)Cc4ccccc4)CC3)cc2CC1C (stereo not given)	i	-0.01
COC(=O)c1cc(OC)c(OC)cc1NC(=O)c1ccccc1C	i	-0.4
Cc1ccc2c(c1)C1OCCC1C1N2C(=O)C2C(C(=O)O)C3C=CC21O3 (stereo not given)	i	0.12
O=C(CSc1nnnn1C1CCCC1)Nc1ccc2c(c1)OCCO2	i	1.24
Cc1c(C(=O)N(C)C2CCCCC2)sc2ncnc(N3CCN(c4ccccc4)CC3)c12	i	-2.22
CCOC(=O)C(=O)Nc1ccccc1C(=O)NC(C)C	i	-0.01
CCOC(=O)C1CCN(CC(=O)NC(=O)NC2CCCCC2)CC1	i	-0.27

Screening data: PubChem BioAssay, Johns Hopkins Ion Channel Center
